# Source: PubChem (several laboratories)
# eIF4H inh = inhibitors of RNA binding by human eIF4H. Q15056. eIF4H fluorescence polarization binding assay. inhibition, % at 35 µM. 290,000 compounds, 0.94% hits. AID 2012;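 active = 50% or more with normal probe brightness, or confirmed in later tests; inconclusive = above 50% with abnormal brightness, or retests that disagree; inactive = below 50% or failed in later tests; about a fifth of its hits are not listed in these tables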;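 note: calls also rest on retests at 20 µM and on dose response follow-up; 0% = protein and probe with vehicle and 100% = probe without protein; strong numbers were not always called active; many hits fall short of the cut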
# CSC inhib = blocks cancer stem cells. cancer stem cell-like cells viability, luminescence. inhibition, % at 7.5 µM. 300,000 compounds, 1.1% hits. AID 2717;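 active = mean at 75% or more and at least half the replicates too; inconclusive = mean and replicates disagree; tested in HMLE shEcad cells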;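 note: 0% = median of negative and 100% = median of positive control wells; the first replicate is given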
# Yeast UUG start = modulators of start codon recognition fidelity in yeast. activity score, % at 18.7 µM. 350,000 compounds, 0.13% hits. S. cerevisiae UUG-firefly luciferase reporter, luminescence/redox ratio;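 active = replicate mean at a twofold rise or more, about +100% in these data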;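 note: firefly luciferase made from a UUG start codon reports start codon fidelity; reporter light over untreated wells divided by growth signal over untreated wells; some hits fall short of that in this replicate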
# Rce1 inh = inhibitors of yeast Ras-converting enzyme; Q03530; yeast membranes, quenched prenylated peptide cleavage fluorescence; calls only; 290,000 compounds, 0.27% hits;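 active = fall in fluorescence gain of 50% or more versus controls, with final raw signal at or below 3038400; inconclusive = same 50% fall but final raw signal above 3038400; inactive = fall in fluorescence gain under 50%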;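 note: plate controls were neutral control wells for no effect and wells lacking membranes for full effect; tested at 10 µM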
# Target sequence (Q03530 whole entry, looked up): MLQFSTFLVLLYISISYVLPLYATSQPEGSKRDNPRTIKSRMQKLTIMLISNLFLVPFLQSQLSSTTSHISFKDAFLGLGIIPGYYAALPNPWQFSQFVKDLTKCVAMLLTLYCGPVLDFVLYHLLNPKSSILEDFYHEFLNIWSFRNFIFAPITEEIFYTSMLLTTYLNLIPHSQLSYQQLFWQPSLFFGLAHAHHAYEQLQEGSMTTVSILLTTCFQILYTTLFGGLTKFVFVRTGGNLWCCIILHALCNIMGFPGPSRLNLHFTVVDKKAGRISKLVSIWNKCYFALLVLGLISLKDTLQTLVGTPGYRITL
# PABP polyA inh = PABP-poly(A) binding inhibition | P11940 | 290,000 compounds, 1% hits | PABP-poly(A) RNA binding, fluorescence polarization | inhibition, % at 35 µM;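 active = 50% or more with normal probe brightness, or confirmed in later tests; inconclusive = above 50% with abnormal brightness, or retests that disagree; inactive = below 50% or failed in later tests; about a fifth of its hits are not listed in these tables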;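 note: calls also rest on retests at 20 µM and on dose response follow-up; controls were probe without protein and protein plus probe with vehicle; some compounds called inactive have numbers as strong as hits; many hits fall short of the cut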
# Target sequence (P11940 whole entry, looked up): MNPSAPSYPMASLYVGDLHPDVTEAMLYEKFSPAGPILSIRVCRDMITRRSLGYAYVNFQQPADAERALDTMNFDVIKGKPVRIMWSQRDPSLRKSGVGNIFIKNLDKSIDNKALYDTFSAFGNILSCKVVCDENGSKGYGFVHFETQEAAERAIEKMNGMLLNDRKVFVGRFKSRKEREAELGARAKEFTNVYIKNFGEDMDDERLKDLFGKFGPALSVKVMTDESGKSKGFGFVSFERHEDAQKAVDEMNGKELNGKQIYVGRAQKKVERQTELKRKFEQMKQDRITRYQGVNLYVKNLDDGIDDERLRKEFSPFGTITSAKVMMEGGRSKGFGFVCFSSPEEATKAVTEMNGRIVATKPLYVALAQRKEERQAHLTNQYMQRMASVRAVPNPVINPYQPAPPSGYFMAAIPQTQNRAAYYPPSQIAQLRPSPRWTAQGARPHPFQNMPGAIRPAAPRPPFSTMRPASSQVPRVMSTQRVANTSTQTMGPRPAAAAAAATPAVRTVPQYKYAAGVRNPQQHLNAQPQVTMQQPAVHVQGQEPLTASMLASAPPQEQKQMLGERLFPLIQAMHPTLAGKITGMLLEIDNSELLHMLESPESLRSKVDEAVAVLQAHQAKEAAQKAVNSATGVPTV
# MT1-MMP act inh = MT1-MMP (human) activation inhibition; P50281; HT1080 RFP-PRO-GFP cells, GFP/RFP ratio fluorescence, overnight; percent of plate control window, DMSO zero; GFP/RFP ratio change, % at 20 µM; 360,000 compounds, 0.061% hits;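 active = GFP/RFP ratio change of at least 30% with cell ATP level not reduced by more than half and red fluorescence within 50% of control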; note: strong numbers were not always called active
#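 Assay system – RFP-PRO-GFP reporter HT1080 cells · Compound dosing – single dose of 20 µM compound, 1% DMSO final · Incubation – overnight compound exposure at 37 °C · Measure – GFP/RFP fluorescence ratio · Benchmarks – DMSO wells and RFP-L50D-GFP cells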
# HIV Env fusion = inhibitors of HIV Env-mediated cell fusion | HeLa-JRFL Env/CEM21 cell fusion, luciferase | inhibition, % at 12.3 µM | 360,000 compounds, 1.1% hits | AID 651610;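 active = mean replicate inhibition score of at least 50 and every replicate individually at or above 50; inconclusive = only one of the two criteria met; inactive = mean below 50 and not all replicates reaching 50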;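 note: 0% = plate neutral controls and 100% = maraviroc near 300 nM; one replicate is shown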
# eIF4H inh retest = second read-out of eIF4H inh, no call of its own (marks repeat the call); inhibition, %; compound at 20 µM; confirmation average;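 mean of two retest wells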
# PABP polyA inh retest = also measured in PABP polyA inh; calls as there; inhibition, %; compound at 20 µM; confirmation repeats;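 mean of two retest wells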
# MT1-MMP act inh RFP = recorded beside MT1-MMP act inh, whose call it bears; RFP signal change, %; measured here: RFP expression control read;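 0 = vehicle wells; hits needed this value within 50% of zero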
# The depositor's hits bear a star; i = inactive; ? = inconclusive; / = not tested or not shown. This is a subset; the hit share may differ from the screen's.
SMILES,eIF4H inh,CSC inhib,Yeast UUG start,Rce1 inh,PABP polyA inh,MT1-MMP act inh,MT1-MMP act inh RFP,HIV Env fusion,others
CC(C)(C)c1ccc(/C=C/C(=O)c2ccc(NC3=NCCCS3)cc2)cc1,-12,99*,/,i,-12,-16,-22,-8,
O=C(Nc1ccc(NC(=O)c2ccco2)c(Cl)c1)c1ccccc1,9,4,/,i,-7,-5,-1,-22,
CC(OC(=O)c1ccc(=O)n(Cc2ccccc2)n1)C(=O)Nc1cccc(Cl)c1 (centres undefined),/,-4,-1,i,/,-4,2,-10,
O=C(c1ccc(Cn2c(=S)[nH]c3ccc(N4CCOCC4)cc3c2=O)cc1)N1CCC(N2CCCCC2)CC1,32,-26,/,i,-2,3,4,-64,
COc1ccc(CC(=O)N2CCCc3ccccc32)cc1,2,-7,-15,i,4,1,0,-79,
CCC(CO)Oc1cc(NCc2ccncc2)c2ncn(C(C)C)c2c1 (centres undefined),/,/,-21,/,/,4,4,-14,
CCCCNC(=O)c1nc(C2CCN(S(=O)(=O)c3ccccc3C(F)(F)F)CC2)oc1-c1cccc(C(F)(F)F)c1,/,/,-22,/,/,2,-2,28,
COc1ccc(-c2oc3ccc(N4CCOCC4)cc3c2C#CCO)cc1,/,97*,-7,i,/,23,-24,?,
CC(C)CC1C(=O)N(Cc2cn(CCC3OCCCO3)nn2)CCS(=O)(=O)N1Cc1ccc(-c2ccncc2)cc1 (centres undefined),/,/,-20,/,/,-4,-2,-2,
CC1(C(=O)NS(=O)(=O)c2cccs2)CCN1C(=O)c1cccc(F)c1 (centres undefined),/,/,1,/,/,0,1,-4,
CC1(C(=O)NS(=O)(=O)Cc2cccc(Cl)c2)CCN1C(=O)C1(c2ccc(Cl)cc2)CC1 (centres undefined),/,/,-1,/,/,1,0,8,
CCc1ccc(NC(=O)C(=O)c2ccccc2NC(C)=O)cc1,/,2,-33,/,/,0,-1,-35,
O=C(NNc1nc2c(F)cc(F)cc2s1)C1=COCCO1,3,-13,/,i,3,2,9,3,
COc1ccccc1C(=O)NC1CCN(C(=S)NCCc2ccccc2)CC1,-4,-20,/,i,1,0,-2,6,
Cc1cc(C(=O)N/N=C/c2c(C)nn(-c3ccccc3)c2Cl)n[nH]1,-9,3,-23,i,8,1,5,-12,

# Random excerpt: 2 compounds from above
SMILES,eIF4H inh,CSC inhib,Yeast UUG start,Rce1 inh,PABP polyA inh,MT1-MMP act inh,MT1-MMP act inh RFP,HIV Env fusion,others
Cc1cc(C(=O)N/N=C/c2c(C)nn(-c3ccccc3)c2Cl)n[nH]1,-9,3,-23,i,8,1,5,-12,
CC1(C(=O)NS(=O)(=O)c2cccs2)CCN1C(=O)c1cccc(F)c1 (centres undefined),/,/,1,/,/,0,1,-4,

# 3 structures from above, ordered by length of the SMILES, lowest first.
SMILES,eIF4H inh,CSC inhib,Yeast UUG start,Rce1 inh,PABP polyA inh,MT1-MMP act inh,MT1-MMP act inh RFP,HIV Env fusion,others
CCc1ccc(NC(=O)C(=O)c2ccccc2NC(C)=O)cc1,/,2,-33,/,/,0,-1,-35,
CC(OC(=O)c1ccc(=O)n(Cc2ccccc2)n1)C(=O)Nc1cccc(Cl)c1 (centres undefined),/,-4,-1,i,/,-4,2,-10,
O=C(c1ccc(Cn2c(=S)[nH]c3ccc(N4CCOCC4)cc3c2=O)cc1)N1CCC(N2CCCCC2)CC1,32,-26,/,i,-2,3,4,-64,

# (cont.)
SMILES,eIF4H inh,CSC inhib,Yeast UUG start,Rce1 inh,PABP polyA inh,MT1-MMP act inh,MT1-MMP act inh RFP,HIV Env fusion,others
CC1(C)OC2CC3C4CC=C5CC(O)CCC5(C)C4CCC3(C)C2(C(=O)CO)O1 (centres undefined),/,/,-1,/,/,3,-1,10,
CC(=O)Nc1ccc(NC(=O)CSc2nccn2Cc2ccccc2)cc1,-12,0,-17,i,5,4,-7,-53,
Cc1cccn2c(=O)c3cc(C(N)=S)c(=N)n(CCCOC(C)C)c3nc12,47,-6,-16,i,47,-17,-10,-28,
CC(C)[C@@H](C(=O)N1CCN(C(=O)OC(C)(C)C)CC1)n1cc(CCO)nn1,-12,-1,-6,i,-3,-1,1,2,
Cc1cc(C)c(C(=O)COC(=O)c2cc([N+](=O)[O-])ccc2NCCO)cc1C,-1,6,/,i,-1,2,-2,11,
CCn1cc(C(=O)N2CCN(Cc3ccc4c(c3)OCO4)CC2)c2cc(OC)c(OC)cc2c1=O,-14,/,-10,i,-16,-5,-5,25,
O=C(Nc1ccc2c(c1)OCO2)c1cc(C2CCCCN2C(=O)CCc2ccccc2)on1 (centres undefined),/,/,-12,/,/,-7,-10,20,
CCN1CCN(C(=O)c2ccc(Cn3c(=O)[nH]c4cc(OC)c(OC)cc4c3=O)cc2)CC1,10,0,3,i,2,7,4,-50,
COc1ccccc1NC(=O)Nc1ccnn1Cc1cccs1,-1,-7,-25,i,11,4,3,2,
Cc1ccc(C2CC(c3ccccc3Cl)n3nc(N)nc3N2)cc1 (centres undefined),8,-2,-2,i,5,0,3,-107,
Cc1ccc(-n2c(-c3ccccc3)c[n+]3c2CCC3)cc1,-1,-1,/,i,4,-3,-31,62*,
CCOC(=O)C(CC)/C(C)=N/NC(=O)c1ccccc1[N+](=O)[O-] (centres undefined),0,-2,/,i,0,14,-1,/,
CCOc1ccc(CCNC(=O)c2cccs2)cc1OCC,1,-14,-4,i,4,6,-4,20,
O=C(c1ccco1)N(Cc1ccco1)Cc1cc2ccccc2[nH]c1=O,5,3,-15,i,-4,1,0,3,
CCN(CC(=O)Nc1ccc(NC(C)=O)cc1)C(=O)c1ccccc1CCc1ccccc1,/,?,-18,i,/,5,1,4,

# Structures above containing fluorine:
SMILES,eIF4H inh,CSC inhib,Yeast UUG start,Rce1 inh,PABP polyA inh,MT1-MMP act inh,MT1-MMP act inh RFP,HIV Env fusion,others
CCCCNC(=O)c1nc(C2CCN(S(=O)(=O)c3ccccc3C(F)(F)F)CC2)oc1-c1cccc(C(F)(F)F)c1,/,/,-22,/,/,2,-2,28,
CC1(C(=O)NS(=O)(=O)c2cccs2)CCN1C(=O)c1cccc(F)c1 (centres undefined),/,/,1,/,/,0,1,-4,
O=C(NNc1nc2c(F)cc(F)cc2s1)C1=COCCO1,3,-13,/,i,3,2,9,3,

# The listing picks up, starting 2 compounds before the break.
SMILES,eIF4H inh,CSC inhib,Yeast UUG start,Rce1 inh,PABP polyA inh,MT1-MMP act inh,MT1-MMP act inh RFP,HIV Env fusion,others
O=C(c1ccco1)N(Cc1ccco1)Cc1cc2ccccc2[nH]c1=O,5,3,-15,i,-4,1,0,3,
CCN(CC(=O)Nc1ccc(NC(C)=O)cc1)C(=O)c1ccccc1CCc1ccccc1,/,?,-18,i,/,5,1,4,
Cc1oc(-c2ccc(Cl)cc2)nc1CN1CCC(C(=O)N2CCc3ccccc3C2)CC1,3,17,-9,i,2,8,-10,/,
CC(C)c1ccc(NNC(=O)C2CCC2)cc1,-8,29,/,i,-11,1,2,0,
O=C(O)CCC(=O)NNc1nc(-c2ccccc2)c2cc(Cl)ccc2n1,-10,-2,-14,i,6,0,0,-9,
O=C(COC(=O)c1ccc(Cl)cc1O)NCCN1C(=O)CSC1=O,-5,-1,/,i,-6,-2,0,9,
O=C(Cc1ccc([N+](=O)[O-])cc1)OCc1ccc([N+](=O)[O-])cc1,6,-5,/,i,9,4,5,18,
CCOC(=O)C1CCN(C(=O)c2[nH]c(C(F)(F)F)nc2-c2ccccc2)CC1,/,/,-14,/,/,-3,-1,-13,
COc1ccc(OC)c(N2C(=O)CC(NNC(=O)c3ccc4c(c3)OCO4)C2=O)c1 (centres undefined),/,-10,17,/,/,3,0,7,
C[C@@H](NC(=O)c1nc[nH]c1C(=O)OCc1ccccc1)c1ccccc1,/,19,-12,/,/,12,-2,8,
CCOc1ccc2nc(NS(=O)(=O)Cc3ccccc3)sc2c1,1,67,-15,i,-4,13,-8,-79,
Cc1ccc(-c2cc(C(=O)Nc3ccncc3)c3ccccc3n2)cc1,/,59,/,i,/,1,-3,-11,
Cc1cc(C)cc(NC(=O)Cn2c(=O)oc3cc(S(=O)(=O)N4CC(C)CC(C)C4)ccc32)c1 (centres undefined),1,14,-29,i,2,5,-14,6,
Cc1c(C(=O)O)oc2c3c(ccc12)OCCO3,9,-7,-13,i,-10,4,4,/,
CN1CCN(C(=O)CN(C)S(=O)(=O)c2cc(Cl)ccc2Cl)CC1,-8,-6,-4,i,-1,0,4,-5,
CN1CCCC(CC2c3ccccc3Sc3ccccc32)C1 (centres undefined),/,9,-7,/,/,-6,-7,11,
CCCCn1c(N)c(N(CCC(C)C)C(=O)C2CC(=O)N(c3ccc4c(c3)OCCO4)C2)c(=O)[nH]c1=O (centres undefined),-14,-34,-2,i,15,3,2,-4,
COC(=O)C(CC(C)C)NC(=O)c1ccc([N+](=O)[O-])c(C)c1 (centres undefined),-2,0,6,i,7,1,1,-47,
CCOC(=O)c1ccc(NC(=O)CN2CCN(C(=O)c3ccco3)CC2)cc1,-2,3,-5,i,-11,-1,0,/,
COc1ccc(OC)c(S(=O)(=O)N2CCCC(C(=O)N3CCOCC3)C2)c1 (centres undefined),0,1,-8,i,1,5,9,-2,
Cn1cc(S(=O)(=O)N2CCCC2)cc1C(=O)O,/,-1,-8,/,/,-1,1,/,
Cc1cc(C)c2nc(N3CCN(C(=O)c4cccs4)CC3)sc2c1,/,9,-14,i,/,-1,-4,-5,
Cc1cccc(Nc2ccc(NCc3ccccc3)nn2)c1,-7,-5,-15,i,3,8,7,-3,
O=C(NCc1ccc(F)cc1)c1cc(C2CCCCN2C(=O)C2CCCCC2)on1 (centres undefined),/,/,15,/,/,0,-13,-5,
CC1CC(O)(CC(O)(c2ccccc2)c2ccccc2)C(C)CN1C (centres undefined),-1,0,-7,i,6,-3,1,14,
O=C(Cn1cc(S(=O)(=O)N2CCN(c3ccccc3F)CC2)c2ccccc2c1=O)NCCCN1CCCCCC1,-16,-2,/,i,0,-1,0,-6,
COc1ccc(-c2ccc(/C=N/N3C(=O)C4C5C=CC(C6CC56)C4C3=O)o2)c([N+](=O)[O-])c1 (centres undefined),64*,47,/,i,9.5*,-5,-1,/,eIF4H inh retest=94*;PABP polyA inh retest=86*
CSc1ccccc1NC(=O)c1cccs1,-5,-4,-6,i,7,1,10,/,
CN1CCN(CCCN(Cc2ccco2)C(=S)Nc2ccc(Cl)cc2)CC1,3,11,/,i,28,0,-1,0,
COc1ncnc2c1N[C@@](C)(O)c1c(F)c(F)c(F)c(F)c1S2,14,-7,-6,i,-8,9,-1,/,
O=[N+]([O-])c1ccc2nc(CCCO)[nH]c2c1,-3,3,/,i,1,2,1,12,
O=C(c1ccc[nH]c1=S)N1CCN(S(=O)(=O)c2ccc(Br)cc2Cl)CC1,-10,-8,-3,i,2,-4,0,14,
Cc1nc2c(=O)n(C)c(=O)n(C)c2nc1Cl,5,44,/,i,2,-4,-7,-7,
O=C(N/N=C\c1cc(Br)cs1)c1ccncc1,-9,-2,/,i,9,3,3,7,
CCCCn1c(N)c(N(CC(C)C)C(=O)CN(C)S(=O)(=O)c2ccc(NC(C)=O)cc2)c(=O)[nH]c1=O,/,-4,1,i,/,1,8,7,
Cn1cnc2c(N/N=C/c3cccs3)ncnc21,-6,-4,-31,i,1,-6,-1,14,
